ALR H2O2 inh: human ALR oxidase inhibition via reduced H2O2; inhibition, % (test concentration not listed); purified ALR, DTT oxidation, H2O2 HRP-luminol luminescence; 290,000 tested, 3.8% active; AID 485317;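 active means mean and each replicate at 75% or more; inconclusive means only one of the two met; inactive means neither met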;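 further: stock transfer was 7.5 nL into about 7.5 µL; 0% = neutral wells and 100% = wells with inactivated enzyme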
Target sequence (P55789 whole entry, looked up): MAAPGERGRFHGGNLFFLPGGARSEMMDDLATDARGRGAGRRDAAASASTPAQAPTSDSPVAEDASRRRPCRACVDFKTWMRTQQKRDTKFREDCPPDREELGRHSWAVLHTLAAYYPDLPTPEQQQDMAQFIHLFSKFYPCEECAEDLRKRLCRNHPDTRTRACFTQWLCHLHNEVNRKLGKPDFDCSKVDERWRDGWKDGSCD
Vif TR-FRET: inhibitors of Vif binding to APOBEC3G peptide, primary screen, biochemical, TR-FRET, GST-Vif 1-94, biotin-A3G peptide, dose response retest (AID 1117319); TR-FRET GST-Vif / biotin-A3G peptide binding; higher % means a stronger effect; test concentration not given here; strong numbers were not always called active; 260,000 tested, 0.57% active; one-dose inhibition, %; IC50 in µM for titrated hits;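 active means above the screen mean plus three standard deviations and confirmed in dose response; inconclusive means results disagree or hit not tested in dose response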;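 further: Vif residues 1-94 fused to GST binding biotinylated APOBEC3G peptide 110-148; 0% = full assay without inhibitor and 100% = GST in place of GST-Vif; retest series ran down from 100 µM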
RanGTP-Imp inh: inhibitors of RanGTP-importin-beta interaction, primary screen, biochemical, FRET, CFP-Ran, YFP-importin-beta, homogeneous; cell-free CFP-Ran/YFP-importin-beta FRET ratio; inhibition, % (test concentration not listed); 300,000 tested, 1.1% active;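 active means most replicates above 15%; inconclusive means exactly half above 15%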;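 further: 0% = DMSO wells and 100% = Ran loaded with GDP instead of GTP; wells of about 40 µL received 100 nL stock; the first replicate is given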
LANA-H2B inh: blocks KSHV LANA binding to histone H2A/H2B; Q9QR71; cell-free LANA-H2A/H2B peptide, fluorescence polarization; inhibition, % (test concentration not listed); 320,000 tested, 0.6% active; in the data active means inhibition mostly above about 10%, no sharp cut-off; inactive means mostly below about 6.7%;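 further: stock transfer was 7.5 nL into about 10 µL; 0% = median of vehicle wells and 100% = median of positive control wells; one replicate is shown; the record names a cut of 25% in any replicate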
HNF4A DNA FP: change in binding of human HNF4 alpha to DNA | HNF4a-FITC DNA binding, fluorescence polarization, 1 h | activity change, % at 10 µM | 360,000 tested, 0.3% active | AID 1224865; in the data active means activity change above about 30%, passing the limit was not always enough;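 further: controls were the assay level and a saturating level of protein; the project sought stronger binding though the title names inhibitors; some compounds called inactive have numbers as strong as hits; positive values seem to mean higher polarization but the record does not say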
Target sequence (P41235 whole entry, looked up): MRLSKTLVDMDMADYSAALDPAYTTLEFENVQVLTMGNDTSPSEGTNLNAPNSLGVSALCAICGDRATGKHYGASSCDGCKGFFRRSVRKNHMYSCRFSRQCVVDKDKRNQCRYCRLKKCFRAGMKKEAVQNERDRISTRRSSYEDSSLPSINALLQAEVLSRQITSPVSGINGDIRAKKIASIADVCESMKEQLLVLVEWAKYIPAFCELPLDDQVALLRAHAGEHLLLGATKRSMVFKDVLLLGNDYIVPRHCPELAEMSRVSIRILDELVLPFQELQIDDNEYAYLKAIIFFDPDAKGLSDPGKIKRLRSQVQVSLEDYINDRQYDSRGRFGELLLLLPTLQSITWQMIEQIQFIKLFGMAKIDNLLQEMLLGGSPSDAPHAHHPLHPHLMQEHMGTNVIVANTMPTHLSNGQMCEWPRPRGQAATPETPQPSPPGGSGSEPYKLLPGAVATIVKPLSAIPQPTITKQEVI
Calb FLC: affects C. albicans growth with fluconazole; C. albicans CaCi-2 (fluconazole-resistant clinical isolate) + fluconazole, Alamar Blue growth, 48 h; growth inhibition, % (test concentration not listed); 300,000 tested, 0.57% active; AID 1979;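 active means most replicates above 75%; inconclusive means exactly half above 75%; inactive means most below 75%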;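 further: all wells also contain fluconazole at 8 µg/ml as a sub-toxic cotreatment; 0% = median of DMSO wells and 100% = median of geldanamycin control wells; wells of about 8 µL received 7.5 nL stock; the first replicate is given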
Beta2AR agonist: human beta-2 adrenergic receptor agonism by FAP; P07550; Am2.2-beta2AR cells, FAP receptor internalization, flow cytometry; reference of the scale not given here; response, % (concentration not given with the values); 340,000 tested, 0.43% active;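 active means response above a set limit, near 3 SD of response in nonfluorescent compounds, cut at about 42% in these data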;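 further: stock transfer was 100 nL into about 11 µL; a reference agonist was the positive control; negative values mostly stem from fluorescent compounds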
Target sequence (P07550 whole entry, looked up): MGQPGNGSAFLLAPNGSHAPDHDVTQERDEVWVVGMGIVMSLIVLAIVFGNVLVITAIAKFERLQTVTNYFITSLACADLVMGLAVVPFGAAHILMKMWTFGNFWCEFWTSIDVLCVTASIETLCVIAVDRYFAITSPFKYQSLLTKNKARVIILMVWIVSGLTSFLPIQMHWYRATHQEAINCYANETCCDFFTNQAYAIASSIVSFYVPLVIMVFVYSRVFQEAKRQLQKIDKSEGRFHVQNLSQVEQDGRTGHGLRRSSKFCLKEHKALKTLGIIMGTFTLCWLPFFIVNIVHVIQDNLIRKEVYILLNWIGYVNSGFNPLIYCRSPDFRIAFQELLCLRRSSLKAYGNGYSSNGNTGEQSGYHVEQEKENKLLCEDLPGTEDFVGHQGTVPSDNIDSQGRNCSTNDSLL
Starred values were filed as active, the others as inactive; u = inconclusive; x = no result given; & = joins results of further samples.

SMILES	ALR H2O2 inh	Vif TR-FRET	RanGTP-Imp inh	LANA-H2B inh	HNF4A DNA FP	Calb FLC	Beta2AR agonist
O=C(CN1C(=O)c2ccccc2S1(=O)=O)c1ccccc1Cl	31	x	6.7	9.1	1.4	12	4
Cc1cccc(C)c1OCc1nnc(SCC(=O)Nc2ccc(N3CCOCC3)cc2)o1	-1	x	2.8	-4.4	-1.7	2	3
O=C1c2oc3ccccc3c(=O)c2C(c2cccnc2)N1Cc1ccco1 (centres undefined)	1	16%	-2.1	-3.2	1.4	u	-14
C=CCNC(=O)NC(=O)COC(=O)/C(C#N)=C/c1cc(C)n(CC(C)C)c1C	12	26%	-1.0	8.9	4.0	3	-2
COc1cc(C(=O)N2CCN(c3ccc([N+](=O)[O-])cc3)CC2)ccc1OCc1c(C)noc1C	6	0%	-2.4	-7.1	0.4	4	12
COc1ccc(C(C#N)c2ccc(Cl)nn2)cc1 (centres undefined)	1	4%	-3.9	5.0	5.6	15	3
CN(C(=O)CO/N=C/c1ccc(OC(F)F)cc1)C1CCS(=O)(=O)C1 (centres undefined)	-3	-3%	1.8	-1.8	0.3	10	-6
CCC(C)(C)NC(=O)CN(C(=O)CCC(=O)Nc1nccs1)c1cccc(C)c1C	-4	-6%	1.1	-5.0	1.4	-17	3
CC(=O)Oc1ccc(N(C(C)=O)S(=O)(=O)c2ccc(C)c([N+](=O)[O-])c2)cc1	-18	x	-2.7	2.4	3.5	-13	-10
CCN(C1CCCCC1)S(=O)(=O)c1ccc(OC)c(C)c1	x	-6%	3.9	-3.0	-3.7	-4	-4
CCOc1ccccc1NC(=O)C1(S(=O)(=O)c2ccc(Cl)cc2)CC1	x	x	0.0	5.9	-0.6	-9	0
CC(=O)N1CCN(c2ccc(NC(=O)c3ccc(N4CCCC4)c([N+](=O)[O-])c3)cc2Cl)CC1	-2	8%	-5.2	1.4	11	30	-8
C/C(N)=C(/C#N)C(=O)CSc1nc(C2CCCCC2)n(-c2ccccc2)n1	54	3%&-1%	0.1	-1.9	1.5&4.6	14	-16&0
Cc1nc2sccn2c(=O)c1S(=O)(=O)NCC(C)c1ccccc1 (centres undefined)	-1	x	u	-3.0	-5.8	-6	-1
Cc1nnc(SCCn2c(N3CC(C)CC(C)C3)nc3c2c(=O)[nH]c(=O)n3C)s1 (centres undefined)	-16	-6%	-2.1	-1.5	3.7	-6	-16
Cc1nn(C)c(Oc2cccc(Cl)c2)c1C(=O)Nc1ccc(F)cc1F	-8	-3%	-0.2	0.8	-2.1	5	-10
CCC(=O)N1CCc2cc(S(=O)(=O)NCCc3ccc(S(N)(=O)=O)cc3)ccc21	-5	x	-0.1	0.2	1.1	-5	-11
COc1ccc(C2=NN(C(=O)COC(=O)c3ccc(S(C)(=O)=O)c([N+](=O)[O-])c3)C(c3ccco3)C2)cc1 (centres undefined)	0	2%	x	-4.3	3.0	x	22
Fc1ccc(N2CCN(/C=C/c3nnnn3-c3ccccc3)CC2)cc1	32	x	-0.8	-6.6	0.2	-1	5
O=C(CN1CCN(S(=O)(=O)c2ccccc2C(F)(F)F)CC1)NCc1cccs1	-33	-1%	1.6	2.5	0.7	-4	11
CN(CC(=O)Nc1cccc(S(=O)(=O)N2CCCC2)c1)CC(=O)Nc1ccc(Cl)c(C(F)(F)F)c1	-1	-12%	-0.3	-0.6	-0.7	8	18
Cc1ccc2c(c1)C(CCN)C(=O)N2Cc1ccccc1 (centres undefined)	-4	4%	3.0	-9.9	4.7	0	17
CCOC(=O)C1=CNS(=O)(=O)NC1c1ccc(C(=O)OC)cc1 (centres undefined)	x	0%	x	x	-5.1	x	-6
Cc1cccc(C)c1N1CCN(C(=O)N2CCOCC2)CC1	-1	6%	-3.0	-0.7	1.8	4	7
CCCCCn1c(=O)[nH]c2cc(C(=O)NCCCN(C)Cc3ccccc3)ccc2c1=O	2	9%	5.4	-1.2	0.0	-4	13
CCO[C@@H]1OC(C(N)=O)=C[C@H](C(C)(C)C)[C@H]1CCCO	5	x	3.0	-3.2	9.1	-6	-1
O=C(CCN1C(=O)c2ccccc2C1=O)N1CCN(C2c3ccccc3-c3ccccc32)CC1	-6	7%	-4.5	-0.7	-0.9	u	3
Cc1ccc(CN2CC(=O)N3[C@H]4c5cc(C)ccc5OC[C@@H]4[C@H](c4ccccc4)[C@]3(C)C2=O)cc1	-5	x	x	-4.0	10	x	-4
O=C(Cc1cccc(NC(=O)C2CCCN(C(=O)C3CCCC3)C2)c1)Nc1cccc(C(=O)N2CCOCC2)c1 (centres undefined)	x	-4%	x	x	-1.6	x	-9
CCN(CC)CCn1c(=N)n(CC(O)c2ccco2)c2ccccc21 (centres undefined)	-16	5%	u	1.1	-1.2	-38	-1

Exported bar-delimited: entries from further up.
Molecule | ALR H2O2 inh | Vif TR-FRET | RanGTP-Imp inh | LANA-H2B inh | HNF4A DNA FP | Calb FLC | Beta2AR agonist
Cc1ccc2c(c1)C(CCN)C(=O)N2Cc1ccccc1 (centres undefined) | -4 | 4% | 3.0 | -9.9 | 4.7 | 0 | 17
Cc1ccc(CN2CC(=O)N3[C@H]4c5cc(C)ccc5OC[C@@H]4[C@H](c4ccccc4)[C@]3(C)C2=O)cc1 | -5 | x | x | -4.0 | 10 | x | -4
CCN(CC)CCn1c(=N)n(CC(O)c2ccco2)c2ccccc21 (centres undefined) | -16 | 5% | u | 1.1 | -1.2 | -38 | -1
O=C1c2oc3ccccc3c(=O)c2C(c2cccnc2)N1Cc1ccco1 (centres undefined) | 1 | 16% | -2.1 | -3.2 | 1.4 | u | -14
CCN(C1CCCCC1)S(=O)(=O)c1ccc(OC)c(C)c1 | x | -6% | 3.9 | -3.0 | -3.7 | -4 | -4
CCC(=O)N1CCc2cc(S(=O)(=O)NCCc3ccc(S(N)(=O)=O)cc3)ccc21 | -5 | x | -0.1 | 0.2 | 1.1 | -5 | -11

Remaining list, next part
SMILES	ALR H2O2 inh	Vif TR-FRET	RanGTP-Imp inh	LANA-H2B inh	HNF4A DNA FP	Calb FLC	Beta2AR agonist
CC(=O)C1=C(O)C(=O)N(CCN2CCOCC2)C1c1ccccc1 (centres undefined)	1	7%	-0.9	-2.0	0.6	13	1
NC(=NCCc1ccc(Cl)cc1)NS(=O)(=O)c1ccccc1	x	-10%	-1.1	2.0	0.8	3	0
O=C(Nc1ccc2[nH]c3c(c2c1)CCCC3)c1ccco1	-23	27%	-17	2.7	2.1	-33	6
Cc1ccc(S(=O)(=O)Nc2nc3ccccc3nc2NCC2CCCO2)c(C)c1 (centres undefined)	41	-8%	5.5	-2.8	7.5	16	-7
CC(C(=O)NCC1CCCCC1)N1CCN(S(=O)(=O)/C=C/c2ccccc2)CC1 (centres undefined)	-29	-2%	-1.5	-5.8	2.8	-6	-10
COc1cc(/C=N/NC(=O)c2ccc(Cn3cc([N+](=O)[O-])cn3)o2)cc(Br)c1O	96*	5%	-0.2	1.3	-0.6	12	13
COc1ccc(C)cc1S(=O)(=O)NCCC1=CCCCC1	-5	1%	-0.5	-2.8	-0.2	-19	6
CC1CC1C(=O)OCC(=O)NCc1ccc(Cl)cc1Cl (centres undefined)	-3	3%	-4.5	0.4	-2.9	-15	-1
Cc1ccc(NC(=O)COC(=O)C2CC2)c(Br)c1	4	u	-3.9	-1.3	-0.9	-7	-2
Cc1ccc(NC(=O)CO/N=C(\N)c2nonc2N)cc1	0	6%	-1.7	-1.5	3.2	41	-15
C=CCn1c(C(CCCC)CC(C)O)n[nH]c1=S (centres undefined)	x	x	-3.2	0.6	-0.8	-3	2
Cc1noc(C)c1NC(=O)Nc1ccc2c(c1)CC(=O)N([C@H](C)CO)C[C@@H](C)[C@H](CN(C)CC1CCCCC1)O2	0	x	x	-13	-8.4	x	1
CCC1=NN2C(=N)/C(=C\c3cccn3-c3ccc(Br)cc3)C(=O)N=C2S1	x	x	-2.8	x	0.1	52	-15
CC1(C)SC(=S)N(/N=C/c2cccnc2)C1N(O)C(=O)NC1CCCCC1 (centres undefined)	-6	3%	0.5	9.6	2.2	-4	0
COc1ccc(/C=C2/CCc3ccccc3C2=O)cc1CN1CCOCC1	x	x	1.8	x	-3.9	17	-2
c1ccc2c(c1)OCC(c1csc3ncnc(N4CCCC4)c13)O2 (centres undefined)	10	19%	-0.3	-1.9	0.7	-6	-6
O=C(CN1CCN(c2ccc(O)cc2)CC1)Nc1cc(S(=O)(=O)N2CCOCC2)ccc1Cl	95*	u	0.3	5.0	-0.8	-1	-4
CCOC(=O)c1cc(-c2ccc(/C=C3/C(=O)N(c4ccc(C(=O)O)cc4)N=C3C)o2)ccc1Cl	20	27%	-3.1	4.5	-3.6	4	32
Cc1cc(/C=C2\SC(=S)NC2=O)c(C)n1-c1ccc(O)cc1	6	71%	23*	-1.0	99*	15	5
CCN(CC)CCNC(=O)C1(O)c2cc(Br)ccc2NC(=O)N1c1cccc(OC)c1 (centres undefined)	-4	-1%	-2.8	-7.2	-4.3	-4	0
COc1ccc(-c2nn(CCC(=O)O)cc2CCC(=O)O)cc1	-4	4%	1.7	1.7	0.7	-1	2
COc1ccc(CCNC(=O)CSC(=O)c2ccccc2)cc1OC	99*	-5%	2.7	3.1	-0.4	-2	-3
O=C(O)CCC(=O)Nc1ccccc1C(=O)NCc1ccccc1	0	25%	7.0	-2.5	-2.4	3	2
COc1cccc(NC(=O)COc2ccc(S(=O)(=O)NC(C)C)cc2)c1	2	-13%	x	-3.4	0.3	x	-7
COc1ccc(CCN(C(=O)C(F)(F)F)C(C(=O)NC2CCCC2)c2cccs2)cc1OC (centres undefined)	0	-1%	3.8	-11	0.2	-8	-2
Cc1cc(NS(=O)(=O)c2ccc(NC(=O)C(C)Oc3ccccc3Cl)cc2)no1 (centres undefined)	x	1%	2.0	x	0.3	-1	10
Cc1sc2ncnc(NCC(O)c3ccccc3)c2c1C (centres undefined)	1	x	0.3	3.2	1.1	-10	0
COc1ccc(NC(=O)CSc2nc3cccnc3n2C)cc1	99*	-2%	4.9	38*	1.2	0	0
CC1(C)CC(=O)C2=C(C1)Nc1ccccc1NC2c1ccc([N+](=O)[O-])cc1 (centres undefined)	98*	x	0.7	0.6	2.2	-1	-3
CC(=O)CC(C)(C)S(=O)(=O)c1ccc(NC(C)=O)cc1	-6	-8%	-4.1	-3.7	-1.9	-5	1
O=C(NCCN1CCOCC1)c1ccc2c(c1)N(Cc1ccccc1)CCS2	100*	4%	3.9	-3.2	1.9	-8	1
Cc1cccc(N2C(=O)N3[C@H](c4ccc(F)cc4)[C@@H]4C(=O)N(C5CCCCC5)C(=O)[C@@H]4[C@]3(Cc3ccccc3)C2=O)c1	-4	x	-0.4	8.3	-5.9	13	0
CCN(CC)C(=O)[C@H]1C[C@H](CC(=O)NCCC2=CCCCC2)C(=O)N2CCc3c([nH]c4ccc(Cl)cc34)[C@]12C	x	2%	x	x	-1.6	x	-2
Cc1cc(NC(=O)c2ccc(S(=O)(=O)N3CCc4ccccc43)cc2)no1	5	1%	u	2.0	0.8	-3	2
COc1ccc(-c2nn(-c3ccccc3)cc2/C=C(\CC(=O)O)c2nc3ccccc3s2)cc1OC	x	-4%	-1.8	-0.7	6.0	29	1
CC1C(=O)C(C)C(c2ccc(Br)cc2)NC1c1ccc(Br)cc1 (centres undefined)	-1	3%	0.9	1.5	0.1	13	18
CN(C)CCNC(=O)Nc1ccc(Cl)c(Cl)c1	0	-3%	-0.8	-1.3	1.8	-5	14

Another view of some results above.
Structure,ALR H2O2 inh,Vif TR-FRET,RanGTP-Imp inh,LANA-H2B inh,HNF4A DNA FP,Calb FLC,Beta2AR agonist
O=C(NCCN1CCOCC1)c1ccc2c(c1)N(Cc1ccccc1)CCS2,100*,4%,3.9,-3.2,1.9,-8,1
CN(C)CCNC(=O)Nc1ccc(Cl)c(Cl)c1,0,-3%,-0.8,-1.3,1.8,-5,14

Source: PubChem BioAssay
